Assay outcomes: PubChem BioAssay, National Center for Advancing Translational Sciences (NCATS)
NPR1 antag: antagonists of human natriuretic peptide receptor Npr1 | Potency, µM (top dose mostly 46.3 µM), for inactives: at the highest dose activity change, negative = inhibition, hits mostly inhibitors | hit rate 1.6% among 76,000 | HEK293 hNpr1 GloSensor cGMP, ANP-stimulated luminescence | AID 1347048 | P16066; active = well fitted inhibition curve with a large enough effect; inconclusive = small, poorly fitted or top-dose-only effect; inactive = no such curve, though single readings can be large or run the other way;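 further: nearly all actives have a fitted effect of over 60% in size; nearly all hits also lower the signal before the agonist is added; a reference antagonist and vehicle were the controls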
Target sequence (P16066 whole entry, looked up): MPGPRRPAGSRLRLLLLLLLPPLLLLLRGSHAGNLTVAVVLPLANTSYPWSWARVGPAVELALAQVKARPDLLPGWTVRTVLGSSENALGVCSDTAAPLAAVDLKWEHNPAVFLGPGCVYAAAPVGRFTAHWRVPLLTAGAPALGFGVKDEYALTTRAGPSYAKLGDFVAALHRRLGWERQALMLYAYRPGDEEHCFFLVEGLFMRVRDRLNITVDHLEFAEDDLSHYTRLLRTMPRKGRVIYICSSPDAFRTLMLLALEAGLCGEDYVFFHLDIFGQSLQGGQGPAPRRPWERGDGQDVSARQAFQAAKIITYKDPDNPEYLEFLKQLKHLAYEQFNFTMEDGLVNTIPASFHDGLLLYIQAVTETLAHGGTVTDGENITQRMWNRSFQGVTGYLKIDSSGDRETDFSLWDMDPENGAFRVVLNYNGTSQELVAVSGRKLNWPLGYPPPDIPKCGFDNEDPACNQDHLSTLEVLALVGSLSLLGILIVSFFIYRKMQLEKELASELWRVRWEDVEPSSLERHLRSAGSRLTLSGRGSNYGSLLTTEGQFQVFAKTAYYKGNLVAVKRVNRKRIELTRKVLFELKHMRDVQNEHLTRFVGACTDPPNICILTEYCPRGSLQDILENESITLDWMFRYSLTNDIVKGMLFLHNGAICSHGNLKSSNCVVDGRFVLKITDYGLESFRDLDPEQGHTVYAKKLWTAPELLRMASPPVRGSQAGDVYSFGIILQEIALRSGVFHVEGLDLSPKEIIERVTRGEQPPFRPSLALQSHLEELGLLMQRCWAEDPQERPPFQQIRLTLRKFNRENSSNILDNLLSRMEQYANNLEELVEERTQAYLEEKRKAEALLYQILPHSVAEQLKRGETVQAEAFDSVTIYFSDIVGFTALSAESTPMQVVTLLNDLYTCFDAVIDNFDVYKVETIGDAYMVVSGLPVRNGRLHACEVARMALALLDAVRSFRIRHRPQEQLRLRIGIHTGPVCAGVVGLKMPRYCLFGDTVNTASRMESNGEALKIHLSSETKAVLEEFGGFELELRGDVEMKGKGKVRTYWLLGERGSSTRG
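HEK293 cells stably expressing human Npr1 and cGMP GloSensor pGS-40F, loaded 2 h with 2% GloSensor reagent, given compound 30 min at room temperature. Luminescence read before and 20 min after 0.1 nM hNppA.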
* hit, by the source's call; ? = inconclusive; [ ] = remark or other dose. On the % scale 0 is the no-effect control and ±100 the full control effect; potency means the concentration at half of the fitted maximal effect.

SMILES	NPR1 antag
COc1ccc(Cn2c(C3CCN(C(=O)c4cccc(C)c4)CC3)n[nH]c2=O)cc1	-5%
O=C(Cc1ccccc1)N1CCC2(CC1)CN(Cc1ccccc1)CC2CO (stereo unspecified)	-22%
COCC(=O)Nc1ccc(-c2noc([C@@H]3CCCN3CC(C)(C)C)n2)cn1	-21%[70.6 µM]
Cc1ccc([C@H]2C[C@@H](O)[C@@H](O)[C@@H]2NS(=O)(=O)c2ccccc2)cc1	-1%[70.6 µM]
CC(C)CC(=O)N1CCCC(c2nc(-c3ccccc3)no2)CCNC(=O)CC1 (stereo unspecified)	-2%
COCc1ccc2c(c1)c(OC(C)(C)C(=O)NCc1cnccn1)nn2CCC(C)C	-5%[70.6 µM]
O=S(=O)(Cc1ccccc1)N[C@H]1CO[C@H]2[C@@H]1OC[C@@H]2n1cc(-c2ccccn2)nn1	?
O[C@H]1[C@H](NCc2ccccn2)[C@H]2CO[C@H](O2)[C@@H]1N1CCN(c2ccccc2)CC1	2%[70.6 µM]
O=C(Nc1ccc(-c2nnc3n2CCCC3)cc1)c1cc(-c2ccccc2)n[nH]1	-15%
O=C(Nc1cccc(-n2cccn2)c1)C1CCCN(C2CCN(Cc3ccco3)CC2)C1 (stereo unspecified)	0%
CC(C)NC(=O)C[C@@H]1O[C@H](Cn2cc(CN(C)Cc3ccccc3)nn2)[C@@H](O)[C@H]1O	2%[70.6 µM]
COc1ccc2cc(C(=O)NC3CCN(C(=O)N4CC5CC(C4)[C@H]4CCCC(=O)N4C5)CC3)[nH]c2c1 (stereo partly specified)	3%
Cc1nc(-c2c3n(c(=O)n(CC(=O)NCc4ccc(F)cc4)c2=O)CCCCC3)no1	0%
CC(C(=O)NCC1CCN(Cc2ccc(F)cc2)CC1)C1CCOCC1 (stereo unspecified)	6%
Cc1ccccc1S(=O)(=O)N1CCC(Cc2nncn2C)CC1	-10%
CO[C@H]1[C@H](NC(=O)COc2ccccc2)c2ccccc2C12CCNCC2	5%
CCc1noc(-c2cn(C3CCN(C(=O)c4cccc(OC)c4)C3)nn2)n1 (stereo unspecified)	-1%
CCNC(=O)N1CCC(n2c(C)cnc2C2CCC2)CC1	5%
CC(=O)NCCc1ncc(C)n1C1CCCCCC1	2%
CN1CCN(C(=O)[C@@H]2CCC[C@@H](NC3CCC3)CN(C)C(=O)C2)CC1	10%[70.6 µM]
Cc1ccc(C2Cn3nnc(-c4noc(-c5cnccn5)n4)c3CO2)cc1 (stereo unspecified)	9%
N#Cc1cccc(CN[C@H]2CO[C@H]3[C@@H]2OC[C@H]3OC(=O)Nc2ccc(Oc3ccccc3)cc2)c1	18µM*
O=C(C1CC1)N1CCC2(CC1)Cc1ccccc1NC2=O	-3%[70.6 µM]
CCc1noc(C)c1C(=O)N1CCc2c(nc(-c3ccccn3)[nH]c2=O)C1	1%
O=C(NCc1ccc(Cl)cc1)c1c[nH]c2ncccc12	-2%[70.6 µM]
CS(=O)(=O)c1ccc(CN2CC[C@H]3NCCC[C@]3(C(=O)O)C2)cc1	1%
COc1ccc(-c2cc3c(=O)n(CCNC(=O)c4cc(Cl)ccc4F)ccn3n2)cc1	-20%
CCn1ncc(CN2CC[C@H](CNC(=O)COC)[C@H](N(C)C)C2)c1C	5%
CCCN(C)C(=O)c1cn2ccnc(-c3ccc(C)cc3)c2n1	-9%
COCCCNC(=O)CCN(CCC(C)C)C(=O)c1ccoc1	2%
COc1ccc(C2Cn3nnc(-c4nc(-c5cccc(F)c5)no4)c3CO2)cc1 (stereo unspecified)	-10%
O=C(NCCc1ccncc1)C1CN(C(=O)CCCc2ccccc2)CC12CCOCC2 (stereo unspecified)	2%
CC(C)CN[C@H]1CO[C@H]2[C@@H]1OC[C@@H]2Nc1nccc(-c2cccs2)n1	25µM*
Cc1cccc(-c2noc([C@@H]3C[C@@H](O)CN3Cc3cccc(C#N)c3)n2)c1	-15%[70.6 µM]
N#Cc1cccc(C(=O)N2CCCCCCNC(=O)CC2)c1	8%
COCCNC(=O)c1ccc2c(c1)N(C)C(CC(=O)NCc1ccoc1)CO2 (stereo unspecified)	6%
O=C(N[C@H]1CO[C@H]2[C@@H]1OC[C@@H]2Nc1nccc(-c2cccs2)n1)c1ccc(C(F)(F)F)cc1	-13%
COc1ccccc1CN1CCC2(CC1)OC(=O)N(Cc1ccccc1)C2(C)c1ccccc1 (stereo unspecified)	-12%
Cc1nc(N2CCC(NC(=O)c3ccccc3Cl)CC2)cc(C(F)(F)F)n1	-21%
CCC(N)(CC)c1cn(CC2CCCN(C(=O)Nc3ccsc3)C2)nn1 (stereo unspecified)	0%
Cc1cc(S(=O)(=O)N2CCC(n3cnnc3C(C)C)CC2)ccc1F	-19%
COCC1CN(S(=O)(=O)c2cccnc2)CC12CCOCC2 (stereo unspecified)	3%
CC(=O)N1CCC(N[C@@H]2CO[C@H](CNC(=O)C3CCCC3)[C@H]2O)CC1	0%[70.6 µM]
Cc1noc(-c2cn(C3CCN(C(=O)c4cccn4C)C3)nn2)n1 (stereo unspecified)	-5%
CCCn1ccc2sc(C)c(C(=O)NC(C)c3ccc(OC)c(OC)c3)c2c1=O (stereo unspecified)	0%
Cc1noc(C2CC3(CCN(C(=O)c4n[nH]c(=O)c5ccccc45)CC3)CN2C)n1 (stereo unspecified)	6%
CCc1noc(CN(CC)C(=O)c2ccccc2NCc2sccc2C)n1	-5%
O=C(Cn1ccn2nc(-c3ccc(F)cc3)c(CO)c2c1=O)NC1CCCC1	0%
CCS(=O)(=O)N1CCCN(Cc2ccncc2)C(c2ccccc2)CC(=O)NCC1 (stereo unspecified)	-2%
CCCN(CC1CCOC1)S(=O)(=O)c1cccs1 (stereo unspecified)	-8%
O=C(COc1ccccc1)N[C@H]1CO[C@H]2[C@@H]1OC[C@@H]2Nc1nccc(-c2ccco2)n1	-1%[70.6 µM]
CC(C)=CCC1(CO)CCCN(C(=O)CN2CCCC2=O)C1 (stereo unspecified)	-1%
CCC(C)NC(=O)C(NC(=O)c1ccc(C)cc1)C1CCN(C(=O)C(C)C)CC1 (stereo unspecified)	0%
CN1CCC([C@@H]2CN(C(=O)c3ccccc3Cl)C[C@H]2C(N)=O)CC1	5%
Cc1nc(CCNS(=O)(=O)c2cccc(C(F)(F)F)c2)no1	0%
CCc1cc(=O)n(CC(=O)Nc2ccc(OC)cc2)c(-c2ccccc2)n1	-3%
CN(C(=O)CN1C(=O)NC(c2ccc(Cl)cc2)C2=C1COC2=O)c1ccccc1 (stereo unspecified)	1%
O=C1NCCCCCCN(C(=O)Cc2cccc(F)c2)[C@H]2CCCC[C@@H]12	0%
Cc1noc(-c2cn(C3CCN(C(=O)c4cccc(C(F)(F)F)c4)CC3)nn2)n1	6%
Cc1cn2nc(C(=O)NCC(C)C)cc2c(N2CCCC2)n1	4%

Reformatted field by field: part of the list above
> CCn1ncc(CN2CC[C@H](CNC(=O)COC)[C@H](N(C)C)C2)c1C
  NPR1 antag = 5%

> CCCN(C)C(=O)c1cn2ccnc(-c3ccc(C)cc3)c2n1
  NPR1 antag = -9%

> COCCCNC(=O)CCN(CCC(C)C)C(=O)c1ccoc1
  NPR1 antag = 2%

> COc1ccc(C2Cn3nnc(-c4nc(-c5cccc(F)c5)no4)c3CO2)cc1 (stereo unspecified)
  NPR1 antag = -10%

Ordered by heavy-atom count (descending): some entries from above
SMILES	NPR1 antag
O=C(COc1ccccc1)N[C@H]1CO[C@H]2[C@@H]1OC[C@@H]2Nc1nccc(-c2ccco2)n1	-1%[70.6 µM]
CCS(=O)(=O)N1CCCN(Cc2ccncc2)C(c2ccccc2)CC(=O)NCC1 (stereo unspecified)	-2%
Cc1noc(-c2cn(C3CCN(C(=O)c4cccc(C(F)(F)F)c4)CC3)nn2)n1	6%
CCc1cc(=O)n(CC(=O)Nc2ccc(OC)cc2)c(-c2ccccc2)n1	-3%
O=C1NCCCCCCN(C(=O)Cc2cccc(F)c2)[C@H]2CCCC[C@@H]12	0%
CN1CCC([C@@H]2CN(C(=O)c3ccccc3Cl)C[C@H]2C(N)=O)CC1	5%
CC(C)=CCC1(CO)CCCN(C(=O)CN2CCCC2=O)C1 (stereo unspecified)	-1%

(further entries)
SMILES	NPR1 antag
Cc1noc(-c2cn(C3CCN(C(=O)c4cccc(Cl)c4)CC3)nn2)n1	3%
Nc1ccc(-c2cccc(CN3CCCC3)c2)cc1	4%
Cc1ccc(C(=O)N2C(C(=O)NCC3CCCO3)COC23CCN(C(=O)c2cccs2)CC3)cc1 (stereo unspecified)	7%
COc1ccc(CN2CCC3(CC2)CC(O)CCO3)cc1C (stereo unspecified)	0%
CC(C)NC(=O)C[C@@H]1C[C@H]2O[C@H](CNC(=O)NC3CCCCC3)[C@@H](O)[C@H]2O1	-3%[70.6 µM]
COc1ccc(N2C(=O)C3(CCCCC3)C2C(=O)O)cc1 (stereo unspecified)	-1%
COc1cccc(-c2cc(C(=O)NCc3c(C)cc(C)[nH]c3=O)c3c(c2)N(C(C)C)CCO3)c1OC	1%
COCCNC(=O)c1ccc2c(c1)N(C)C(CC(=O)N1CCC(N)CC1)CO2 (stereo unspecified)	-1%
O=S(=O)(Cc1ccccc1F)N1CCCC(Cc2noc(-c3cnccn3)n2)C1 (stereo unspecified)	0%
CCN1c2cc(C(N)=O)ccc2C(=O)N2CCCCCC21 (stereo unspecified)	0%
COc1cccc(CN2CCCOCCNC(=O)CC2)c1	6%
O=C(O)Cn1ccc2cc(OCCc3cccc(-c4ccc(F)cc4)c3)cnc21	4%[70.6 µM]
CCOc1ccccc1C(=O)N1C[C@@H](CN2CCCN(C)CC2)[C@@H](CO)C1	6%
CCCn1c(C)cnc1C1CCN(C(=O)NCC)C1 (stereo unspecified)	0%
O=C(CCn1ccc(=O)[nH]c1=O)NC1CCCN(CCCc2ccccc2)C1 (stereo unspecified)	5%
CC1(C)[C@H](Cc2cc(CCO)on2)C[C@@H]1NCc1ccccc1O	1%[70.6 µM]
CN1CCC2(C1)CN(CC1CCOCC1)c1ccc(C(=O)NCCCO)cc12 (stereo unspecified)	-1%[70.6 µM]
COc1ccc(CN(C)C(=O)Cn2nnnc2CN2CCOCC2)c2cccnc12	-1%
O=C(O)c1ccnc(-c2ccnc(NCCc3noc(C4CCC4)n3)n2)c1	1%
Cn1c(CCC(=O)NCc2ccon2)nc2cc(S(=O)(=O)N3CCCC3)ccc21	0%
COC1CCC12CCN(C(=O)C1CCOCC1)CC2 (stereo unspecified)	5%
Cc1ccc(F)c(NC(=O)[C@@H]2COCC(=O)N2Cc2ccc(F)cc2)c1	-2%
CCc1[nH]nc(C(=O)N2CC[C@H](N3CCOCC3)[C@H](CCC(=O)O)C2)c1C	2%
OCC1(CN2CCCC2)CCN(Cc2cccc(Cn3cccn3)c2)CC1	-2%
O=C(C[C@@H]1CCNC[C@@H]1Cc1cc(-c2ccccc2)on1)N1CCCCC1	-2%[70.6 µM]
COc1cccc(CN2CC[C@@](C)(O)[C@H](N3CCCC3)C2)c1	0%
O=C1NCCCCCCN(Cc2ccncc2)[C@@H]2CN(C(=O)c3cccnc3)CC[C@@H]12	-1%
CN(C)C(=O)C1CN(C(=O)c2ccccc2Br)CC12CCOCC2 (stereo unspecified)	-2%
COc1ccc(-c2nc3c(c(=O)[nH]2)CCN(C(=O)Nc2ccc4c(c2)CCC4)C3)cc1	-1%
COCCCn1c(C)cnc1C1CCN(C(=O)NCC(=O)OC)C1 (stereo unspecified)	3%
O=c1c2cc(-c3cccs3)nn2ccn1CC(O)c1cccc(Cl)c1 (stereo unspecified)	-16%
COc1ccc(C(=O)Nc2ccc(-c3noc([C@@H]4CCCN4Cc4cnc5ccccc5c4)n3)cn2)cc1	13µM*
CCCNC(=O)N[C@@H]1CCC[C@@H](C(=O)NCCOC)CC(=O)N(C)C1	1%[70.6 µM]
CC(C(=O)N1CCCC1)N1CCC2(CCC(=O)N(CCO)C2)CC1 (stereo unspecified)	8%
COC(=O)CC[C@H]1CNC(=O)[C@@H]2[C@@H](CCN2Cc2nc3ccccc3n2C)N1C	1%[70.6 µM]
Cc1cnc(CC2CCN(C(=O)c3nn(C)c4ccccc34)C2)n1CC1CC1 (stereo unspecified)	-16%
CN(CCc1nc2ccccc2[nH]1)C(=O)C1COc2ccccc2C1 (stereo unspecified)	-1%
Cn1nccc1C(=O)N1C[C@@H]2CCCN3CCC[C@@H]([C@H]23)[C@H]1CCCC(=O)NCc1ccccc1	2%
Cc1oc2c(c1C(=O)NCCN(C)C)CN(CCc1ccccc1)CC2	-16%
CCCc1nnc(NC(=O)C2c3ccccc3C(=O)N(CCOC)C23CCCCC3)s1 (stereo unspecified)	-2%
CCC(c1cnn(C)c1)n1ccnc1-c1cc(F)c(OC)c(Cl)c1 (stereo unspecified)	1%
O=C1CC(c2ccccc2)N(C(=O)CNC(=O)NC2CCCCC2)CCCCCCN1 (stereo unspecified)	-1%
CCCCNC(=O)CC(c1cccc2c1OCO2)c1c[nH]c2c(CC)cccc12 (stereo unspecified)	-13%
CC1=C[C@@H](CO)[C@H](C(C)C)C[C@H]1CC(=O)N1CCN(c2ccccn2)CC1	-8%[70.6 µM]
C#CCNC(=O)C[C@@H]1O[C@H](CNC(=O)c2ccc(C)cc2)[C@@H](O)[C@H]1O	7%[70.6 µM]
COC(=O)c1ccc(CN2C(=O)[C@@H]3C[C@@H](O)CN3C3(CN(Cc4ccc(OC)cc4)C3)C2=O)cc1	2%
Cc1ccccc1CC(=O)NCc1nnc2cc(-c3nc(C4CC4)no3)ccn12	1%

Only part of the results is shown; count on the stated rates, not on these rows.
